Screening data (PubChem BioAssay)
NS1 inh: qHTS Assay for Inhibitors of Influenza NS1 Protein Function | Potency, µM (doses to about 46.1 µM), for inactives: at the highest dose activity, positive = more growth | S. cerevisiae slowed by influenza A NS1, growth recovery by OD600 | 270,000 tested, 0.4% active | AID 2326, 2010; also: actives are rising curves; nearly all actives have a fitted effect of over 50% in size
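S. cerevisiae expressing influenza A NS1, grown in glucose, washed, then diluted 1:100 into pH 6.0 -URA galactose medium with 23 nl compound. Growth recovery read as OD600; NS1-free strain serves as control.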
Cruzain noTriton: qHTS Assay for Promiscuous and Specific Inhibitors of Cruzain (without detergent); Cruzipain (Trypanosoma cruzi), P25779; purified cruzain, Z-FR-AMC fluorescence, no detergent; Potency, µM, for inactives: max response, negative = inhibition, hits mostly inhibitors; 200,000 tested, 2.3% active; AID 1476, 2009; active = well fitted curve in the direction sought with a large enough effect; inconclusive = small, poorly fitted or top-dose-only effect, or another doubt; inactive = no such curve, though single readings can be large; an effect the other way counts as inactive or inconclusive;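 also: plate controls were enzyme without inhibitor for no effect and buffer without enzyme for full effect; nearly all actives have a fitted effect of over 40% in size; top concentration of the series not given in the record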
Target sequence (P25779 123-467 limits assumed): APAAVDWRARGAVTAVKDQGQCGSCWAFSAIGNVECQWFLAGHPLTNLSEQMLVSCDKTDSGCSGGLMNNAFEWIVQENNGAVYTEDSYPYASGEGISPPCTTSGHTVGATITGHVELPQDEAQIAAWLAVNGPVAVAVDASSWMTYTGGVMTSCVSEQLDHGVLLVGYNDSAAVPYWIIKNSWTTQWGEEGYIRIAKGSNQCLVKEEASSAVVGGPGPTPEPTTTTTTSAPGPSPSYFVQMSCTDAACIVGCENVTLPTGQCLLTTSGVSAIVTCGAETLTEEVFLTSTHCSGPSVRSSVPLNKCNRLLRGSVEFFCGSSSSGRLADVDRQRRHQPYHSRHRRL
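Purified cruzain at 1.5 nM, pre-incubated 15 min with compound at room temperature in 100 mM sodium acetate pH 5.5, 5 mM DTT, 0.00005% Triton X-100. Reaction started with 2 uM Z-FR-AMC; AMC fluorescence increase over 60 s gives rate.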
RE007 growth inh: qHTS Assay for Inhibitors of the HIV-1 protein Vpr | S. pombe RE007 Vpr strain, BacTiter-Glo ATP luminescence, 24 h; control for the full effect not named in the record | Potency, µM (doses to about 92.2 µM), for the others: top-dose activity change, negative = less growth | 360,000 tested, 0.21% active | AID 651644, 2012; active = well fitted falling curve with a large enough effect; inconclusive = small, poorly fitted or top-dose-only effect; inactive = no such curve, though single readings can be large or run the other way;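 also: % is scaled to controls: 0 for no effect and ±100 for the full control effect; nearly all actives have a fitted effect of over 50% in size; the assay follows cell death caused by Vpr and the record does not say whether a fall means rescue or toxicity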
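Fission yeast RE007 carrying one integrated HIV-1 vpr copy, seeded at OD 0.01 in PMG+AL medium with 23 nL pinned compound. Grown 24 h at 30 degrees; viability read by BacTiter-Glo luminescence after 5 min.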
StopGo reporter: High Throughput Screening for Foot and Mouth Disease Virus Antivirals | human cells with a luciferase reporter of 2A StopGo recoding; control for the full effect not named in the record | 410,000 tested, 1.2% active | Potency, µM (doses to about 57.9 µM), without a hit: at the highest dose signal change, negative = less light; active = well fitted falling curve with a large enough effect; inconclusive = small, poorly fitted or top-dose-only effect; inactive = no such curve, though single readings can be large or run the other way; tested in HEK293T cells; also: % is scaled to controls: 0 for no effect and ±100 for the full control effect; nearly all actives have a fitted effect of over 45% in size; luciferase light after 4 h
Cruzain inh Det: qHTS Assay for Promiscuous and Specific Inhibitors of Cruzain (with detergent); Cruzipain (Trypanosoma cruzi), P25779; purified cruzain, Z-FR-AMC fluorescence, 0.01% Triton; Potency, µM, for inactives: max response, negative = inhibition, most hits filed as inhibitors; 200,000 tested, 0.43% active; active = well fitted curve in the direction sought with a large enough effect; inconclusive = small, poorly fitted or top-dose-only effect, or another doubt; inactive = no such curve, though single readings can be large; an effect the other way counts as inactive or inconclusive;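 also: plate controls were neutral wells for no effect and buffer without enzyme for full effect; nearly all actives have a fitted effect of over 40% in size; top concentration of the series not given in the record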
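Compounds were screened in titration against cruzain (1.5 nM) with 0.01% Triton X-100 to counter colloidal aggregation. Activity was the AMC fluorescence increase over 60 s after adding 2 uM Z-FR-AMC at pH 5.5.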
MARV entry inh: qHTS for inhibitors of binding or entry into cells for Marburg Virus; Marburg virus pseudotyped entry inhibition, cell reporter; control for the full effect not named in the record; about a third of the inactives were read at about 46 µM; Potency, µM (top dose mostly 37.8 µM), inactives show top-dose activity change, negative = inhibition, usual class: inhibitors; 300,000 tested, 1.8% active; AID 540276, 2011; active = well fitted inhibition curve with a large enough effect; inconclusive = small, poorly fitted or top-dose-only effect, or effect the other way; inactive = flat fitted curve, though single readings scatter; tested in HEK293 cells; about a fifth of its hits are not listed in these tables; also: % is scaled to controls: 0 for no effect and ±100 for the full control effect; luciferase read-out
SARS PLpro yeast: qHTS of Yeast-based Assay for SARS-CoV PLP. S. cerevisiae expressing SARS-CoV PLpro, growth rescue; control for the full effect not named in the record. Potency, µM (series often up to 32.9 µM), for inactives: at the top dose activity, positive = growth rescue. 330,000 tested, 0.19% active; also: 0% is about no effect; nearly all actives have a fitted effect of over 55% in size; growth read by luminescence after 48 h
LASV entry inh: qHTS for Inhibitors of binding or entry into cells for Lassa Virus; AID 540256, 2011; 300,000 tested, 1.2% active; Potency, µM (highest dose often 37.9 µM), for inactives: top-dose activity change, negative = inhibition, usual class: inhibitors; Lassa virus pseudotype entry inhibition, cell reporter; control for the full effect not named in the record; active means well fitted inhibition curve with a large enough effect; inconclusive means small, poorly fitted or top-dose-only effect, or effect the other way; inactive means flat fitted curve, though single readings scatter; tested in HEK293 cells; also: % is scaled to controls: 0 for no effect and ±100 for the full control effect; nearly all actives have a fitted effect of over 50% in size; luciferase read-out
* marks the source's active call; other numbers are inactive results; ? = inconclusive; nt = no result given; & = joins results of further samples; [ ] = dose if it differs, or a comment. Unless noted, calls follow the shape of the dose curve; as a rule, active means well fitted rising curve with a large enough effect; inconclusive means small, poorly fitted or top-dose-only effect; inactive means no such curve, though single readings can be large or run the other way. Potency is read from the fitted curve at half-maximal effect.

SMILES	NS1 inh	Cruzain noTriton	RE007 growth inh	StopGo reporter	Cruzain inh Det	MARV entry inh	SARS PLpro yeast	LASV entry inh
CN(C)S(=O)(=O)c1cccc(COC(=O)c2cc([N+](=O)[O-])ccc2N2CCOCC2)c1	nt	nt	-22%	?	nt	11%[46.1 µM]	0%	?
O=C(CSc1nnc(NC(=O)C2CC(=O)N(c3ccc(F)cc3)C2)s1)NCc1ccco1 (stereo not given)	18%	nt	1%	-18%	nt	?	-3%	3%
CCOc1ccc(NS(=O)(=O)c2ccc(OC)c(C)c2)cc1	-7%	1%	-6%	45%[activator]	-5.1%	-20%	-1%	-7%
c1ccc(-c2nc(-c3ccco3)cs2)nc1	-23%	0%	?	10%	-4.8%	?	11%	6%
O=c1[nH]ncc2c3ccccc3n(Cc3ccccc3F)c12	?	0%	3%	-29%	11%	-1%	10%	4%
COc1ccc(C2CC(=O)c3ccccc3O2)cc1 (stereo not given)	-30%	-1%	0%	57%[activator]	-0.8%	44%	-5%	24%
Cc1cccc(NC(=O)CCn2nc(C)c3c(C)n(-c4ccccc4)nc3c2=O)c1C	nt	1%	nt	1%	-1.7%	nt	nt	28%[46.1 µM]
O=C1NC(=S)N(c2ccc(F)cc2)C(=O)/C1=C/c1ccccc1O	-2%	nt	6%	?	nt	nt	-1%	nt
Cc1cc(C)cc(OCC(=O)Nc2ccc(N3CCN(S(C)(=O)=O)CC3)cc2)c1	2%	16µM*	11%	6%	-1.1%	16%	4%	-11%
Cc1ccc(S(=O)(=O)N2CCC(C(=O)N[C@@H](C)C(=O)NCCc3ccccc3)CC2)cc1	-7%	23%	-1%	9%	3.7%	?	1%	-16%
Cc1ccc(CNC(=O)c2cc(COc3c(F)cccc3F)on2)s1	-2%	nt	-20%	6%	nt	10%[46.1 µM]	-2%	?
Cn1c(=O)c2sccc2n2c(CCC(=O)NCc3ccccc3)nnc12	nt	4%	nt	-19%	0.8%	?	nt	0%[46.1 µM]
CC(C)Cc1nc(Nc2ccc(S(=O)(=O)N3CCCC3)cc2)c2nnn(Cc3ccccc3)c2n1	21%	-7%	0%	-3%	-7.7%	?	3%	?
COC(=O)[C@@H]1CCCN1C(=O)CCc1nnc(CCc2c[nH]c3ccccc23)o1	-33%	nt	-2%	31%[activator]	nt	-3%[46.1 µM]	-4%	1%
O=C(O)c1ccc2c(c1)C1C=CCC1C(c1cc3c(cc1Br)OCO3)N2 (stereo not given)	2%	nt	?	-12%	nt	nt	-4%	nt
Cc1ccc(CNc2ccccc2C(=O)O)s1	-90%	nt	-20%	5%	nt	nt	-7%	nt
COc1ccc(C(=O)N2CCN(c3ccc(NC(=O)Cc4ccccc4)cc3)CC2)cc1	14%	nt	-16%	-19%	nt	?	1%	-11%
COCCCN1C(=O)c2[nH]nc(-c3ccccc3O)c2C1c1cccc(Cl)c1 (stereo not given)	?	2%	12%	-10%	-5.8%	?	3%	?
O=C(NCCNC(=O)c1cc(OCC(F)(F)F)ccc1OCC(F)(F)F)Nc1ccccc1	-4%	-1%	-5%	-16%	-3.2%	?	5%	14%
CCOc1ccccc1N(CC(=O)N1CCCCCC1)S(C)(=O)=O	-17%	-3%	7%	-5%	-1.3%	?	5%	26%
CCOc1ccccc1C(=O)Nc1ccc2c(c1)C(=O)NC2=O	12%	nt	-19%	9%	nt	?	1%	-2%
Cc1nn(CC(O)c2ccccc2)c(C)c1Br (stereo not given)	10%	-3%	-16%[3.69 µM]	23%	0.8%	3%	?	14%
CC(=O)c1ccc(S(=O)(=O)Nc2ccccc2C(=O)NC2CC2)cc1	nt	nt	-10%	14%	nt	?	-3%	21%
Cc1ccccc1-c1nc(CS(=O)(=O)CC(=O)NCc2ccccc2)c(C)o1	-71%	2%	-4%	-19%	-0.3%	nt	0%	nt
CC(CCc1ccccc1)NCC(O)COc1ccccc1 (stereo not given)	nt	nt	3%	-5%	nt	?	0%	3%

The results go on:
SMILES	NS1 inh	Cruzain noTriton	RE007 growth inh	StopGo reporter	Cruzain inh Det	MARV entry inh	SARS PLpro yeast	LASV entry inh
O=C(NNC(=O)C1C2CCC(C2)C1C(=O)O)c1ccc(Cl)cc1 (stereo not given)	-1%	nt	1%	34%[activator]	nt	2%[46.1 µM]	11%	14%
Cc1nn(CC(=O)OCC(=O)c2ccccc2)c(C)c1[N+](=O)[O-]	nt	nt	-20%	-13%	nt	9%	3%	5%
CC(C)c1ccc(S(=O)(=O)c2nnn3c2nc(NCc2cccs2)c2sccc23)cc1	nt	-8%	nt	26%	-0.4%	nt	nt	?
Cc1cc(C)c(C)c(S(=O)(=O)N2CCSCC2)c1C	-21%	nt	0%	-20%	nt	nt	0%	nt
C[C@H]1CC[C@@H]2N(C1)C[C@H]1[C@@H]3C[C@H]4[C@@H](CC(=O)[C@H]5C[C@@H](O)CC[C@@]54C)[C@@H]3CC[C@H]1[C@]2(C)O	3%	nt	-10%	-5%&-2%	nt	nt	0%	nt
COc1ccccc1CNC(=O)CCCn1c(=O)c2ccccc2n(Cc2ccc(F)cc2)c1=O	nt	-7%	nt	-29%	-1.7%	7%[46.1 µM]	nt	-19%[46.1 µM]
Cc1c(NC(=O)N(C)C)c(=O)n(-c2ccccc2)n1C	17%	3%	18%	12%	3.3%	5%	-4%	0%
CCOc1cc(-c2sc(Nc3ccccc3)n[n+]2C)ccc1OC	-25%	nt	-19%	0%	nt	nt	6%	nt
O=S(=O)(c1ccc(F)c(F)c1)N1CCN(CCc2ccccc2)CC1	-3%	nt	6%	-30%	nt	nt	4%	nt
CCNC(=S)N(Cc1cc2cc(C)cc(C)c2[nH]c1=O)C1CCCC1	9%	20%	9%	0%	-2.2%	-10%	6%	1%
CN1C(=O)CC(N2CCC(C(N)=O)CC2)C1=O (stereo not given)	7%	-6%	?	-3%	-0.8%	9%	3%	-2%
CC(C)Cn1cc(NC(=O)Nc2cccc(C(F)(F)F)c2)c2ccccc2c1=O	nt	-19%	nt	-4%	-14%	nt	nt	-27%[46.1 µM]
CCOc1ccc(CN2CCNC(=O)C2CC(=O)O)cc1 (stereo not given)	-2%	nt	2%	0%	nt	4%[46.1 µM]	1%	?
COc1ccc(/C=C2/C(=N)N3C(=NC2=O)Sc2cc(S(C)(=O)=O)ccc23)cc1OC	12%	nt	-8%	13%	nt	-2%	2%	?
COc1ccc(C(C(=O)NCC2CCCO2)N(C(=O)c2snc(C(N)=O)c2N)c2ccccc2C)cc1OC (stereo not given)	29%	nt	16%	-27%	nt	?	3%	-5%
CC1=C(C#N)C(/C=N/OCc2ccc(Cl)cc2)CC(=O)N1 (stereo not given)	nt	nt	-20%	33%[activator]	nt	1%[46.1 µM]	0%	9%
COc1ccccc1N1CCN(CC(=O)c2c[nH]c3ccccc23)CC1	1%	nt	12%	-13%	nt	nt	0%	nt
CN1CCN(S(=O)(=O)c2ccc(N3CCN(C(c4ccccc4)c4ccccc4)CC3)nc2)CC1	4%	nt	-25%	-29%	nt	?	-1%	?
CCNC(=S)N(Cc1cccs1)Cc1cc2cc(OCC)ccc2[nH]c1=O	8%	14%	1%	-23%	-6.7%	?	-19%	-18%
O=[N+]([O-])c1ccccc1/C=C/CN1CCCCC1	4%	3%	-12%	-12%	-7.9%	3%	1%	17%[14.3 µM]
CNC(=S)N1N=C(c2cccs2)CC1c1ccc(OC)cc1 (stereo not given)	15%	nt	14%	-8%	nt	-30%	7%	-13%
O=C(Nc1ccc(F)cc1)c1cccc2ccccc12	-10%	nt	?	55%[activator]	nt	nt	?	nt
COc1ccc(Cl)cc1NS(=O)(=O)c1c(C)[nH]c(=O)[nH]c1=O	3%	-12%	12%	-29%&-14%	-7.3%	nt	0%	?
NC(=O)c1cc2cc(Br)ccc2oc1=NCc1ccccc1	-2%	5%	-11%	-15%	-2.9%	4%	1%	-3%
O=C(Nc1cccnc1)c1ccc([N+](=O)[O-])cc1Cl	nt	nt	7%	11%	nt	?	1%	3%

(more compounds)
SMILES	NS1 inh	Cruzain noTriton	RE007 growth inh	StopGo reporter	Cruzain inh Det	MARV entry inh	SARS PLpro yeast	LASV entry inh
Cc1ccc2[nH]c(CSc3nnc(NC(=O)c4ccccc4F)s3)cc(=O)c2c1	nt	11%	nt	?	4.9%	nt	nt	0%[46.1 µM]
CCCCC#Cc1ccc2c(c1)COc1c3ccccc3nn1-2	1%	nt	5%	48%[activator]	nt	nt	3%	nt
CCNc1nc(NC(C)C)nc(Oc2ccc(OCCOc3ccc(C)cc3)nn2)n1	-46%	?	-5%	-27%	0.4%	-16%	-6%	?
O=C1Nc2ccc(S(=O)(=O)NCCC3=CCCCC3)c3cccc1c23	-2%	-5%	-17%	13%	0.1%	-19%	5%	-17%
COc1cc(C2C(C(=O)c3cccs3)=C(O)C(=O)N2CCN2CCOCC2)ccc1OCCC(C)C (stereo not given)	nt	nt	-5%	29%	nt	?	nt	-8%[46.1 µM]
CCCSc1nc2sc3c(c2c(=O)[nH]1)CC(C)CC3 (stereo not given)	1%	nt	0%	18%	nt	1%	1%	-5%[46.1 µM]
COc1ccc(C2CC(=O)c3c([nH]c(C(=O)OC4CCCCCC4)c3C)C2)cc1 (stereo not given)	nt	-3%	nt	-5%	-1.8%	0%[46.1 µM]	nt	24%[46.1 µM]
CCN(C(=O)CSc1nnc(Cc2ccccc2F)n1N)C1CCS(=O)(=O)C1 (stereo not given)	-2%	-1%	10%	-13%	-4.9%	3%	-9%	8%
CN(CC(=O)Nc1ccccc1Cl)C(=O)COC(=O)c1ccc(S(=O)(=O)C(F)F)cc1	nt	nt	6%	-14%	nt	-2%[46.1 µM]	-3%	-10%
CCOC(=O)C1CCCN(S(=O)(=O)CCNC(=O)c2ccc(F)cc2)C1 (stereo not given)	nt	nt	-16%	-6%	nt	3%[46.1 µM]	0%	-1%
